# Assay outcomes as filed in PubChem.
# StopGo reporter = FMDV 2A StopGo reporter, luciferase signal | Potency, µM (doses to about 57.9 µM), inactives show at the highest dose signal change, negative = less light | human cells with a luciferase reporter of 2A StopGo recoding; control for the full effect not named in the record | actives 1.2% (n = 410,000); active = well fitted falling curve with a large enough effect; inconclusive = small, poorly fitted or top-dose-only effect; inactive = no such curve, though single readings can be large or run the other way; tested in HEK293T cells; further: nearly all actives have a fitted effect of over 45% in size; luciferase light after 4 h
# RE007 growth inh = less growth of the S. pombe RE007 Vpr strain | Potency, µM (titrated, usually from 92.2 µM), for the others: at the highest dose activity change, negative = less growth | S. pombe RE007 Vpr strain, BacTiter-Glo ATP luminescence, 24 h; control for the full effect not named in the record | AID 651644 | actives 0.21% (n = 360,000); active = well fitted falling curve with a large enough effect; inconclusive = small, poorly fitted or top-dose-only effect; inactive = no such curve, though single readings can be large or run the other way;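 further: nearly all actives have a fitted effect of over 50% in size; the assay follows cell death caused by Vpr and the record does not say whether a fall means rescue or toxicity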
#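 Fission yeast strain RE007, carrying one chromosomally integrated HIV-1 vpr copy, was seeded at OD 0.01 in PMG+AL medium with 23 nL pinned compound. After 24 h at 30 °C and 99% humidity, viability was read by BacTiter-Glo luminescence.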
# The depositor's hits bear a star; ? = inconclusive; [ ] = remark or other dose. On the % scale 0 is the no-effect control and ±100 the full control effect; potency means the concentration at half of the fitted maximal effect. The list is partial. The share of hits here may be higher or lower than overall.
# Screens in order: StopGo reporter	RE007 growth inh
[1] O=C(COC(=O)CN1C(=O)C2CC=CCC2C1=O)Nc1cccc([N+](=O)[O-])c1 (stereo not drawn)
  0%	3%
[2] C[C@H](O)[C@@H]1C(=O)N2CCc3c([nH]c4ccccc34)[C@@H]2C[C@@H]1N(C)C(=O)c1cc(Cl)cc(Cl)c1
  -30%	8%
[3] CCOC(=O)c1c(NC(=O)CN2C(=O)N(C)C3(CCCCC3)C2=O)sc(C(=O)N(C)C)c1C
  -14%	4%
[4] CC(NC(=O)CN1c2cccc3cccc(c23)S1(=O)=O)c1ccccc1 (stereo not drawn)
  -21%	8%
[5] COc1ccc(NC(=O)C[C@H]2C(=O)N(Cc3ccccc3)C[C@@H]2c2ccc(OC)cc2)cc1
  -18%	6%
[6] COC(=O)[C@]12CCCCC=C1N(Cc1ccco1)C(=O)[C@H](CC(=O)N1CCN(C(=O)c3ccco3)CC1)C2
  -25%	3%
[7] O=C(O)c1cccc(NC(=O)c2ccccc2NC(=O)c2cccs2)c1
  -13%	-4%
[8] CC1=C(C(=O)N(C(C)C)C(C)C)CC(CC(=O)NCCCCc2ccccc2)C(=O)N1Cc1ccc(F)cc1 (stereo not drawn)
  -22%	4%
[9] Cc1ccc(C(O)c2ncc(-c3ccccc3)[nH]2)c(C)c1 (stereo not drawn)
  49%[activator]	-24%
[10] O=C1C=C(OCCF)CC(c2cccc([N+](=O)[O-])c2)O1 (stereo not drawn)
  2%	0%
[11] CCCCN1CC[C@H]2C=CC[C@@H](C(=O)N3CCOCC3)[C@H]2C1=O
  -5%	5%
[12] Cc1ccc(C(NC(=O)C2CCN(CCOc3ccccc3)CC2)c2ccccn2)cc1 (stereo not drawn)
  -17%	-7%[18.4 µM]
[13] O=c1[nH]c2ccccc2n1C1CCN(CCOc2ccccc2)CC1
  -30%	-27%
[14] CC1(C(=O)NCc2cccc(Cl)c2)Cc2c(-c3ccc4c(c3)OCO4)ccnc2O1 (stereo not drawn)
  -24%	-10%
[15] COc1cccc(-c2cnc(C(O)c3c(C)ccc4ccccc34)[nH]2)c1 (stereo not drawn)
  28%	-26%[18.4 µM]
[16] COC(=O)[C@H]1C[C@H](OC(=O)Nc2c(C)noc2C)[C@@]2(O)CN(S(=O)(=O)c3ccc(C)cc3)CC2[C@H]1C(=O)OC (stereo partly drawn)
  ?	5%
[17] CC(C)CNC(=O)c1ccc(-c2ccc(F)c(F)c2)c2ccoc12
  -8%	-3%
[18] COCCNC(=O)C1CCCN(Cc2ccc(C#N)cc2)CC1 (stereo not drawn)
  -19%	11%[18.4 µM]
[19] CC(C)(C)c1ccc2cccc(F)c2n1
  -16%	-7%
[20] O=S1(=O)N[C@H](Cc2ccccc2)COc2cc(N3CCN(Cc4ccccc4F)CC3)ccc21
  ?	-27%
[21] COc1ccc(CN2C(=O)C(CC(=O)NCCN3CCOCC3)CC(C(=O)N3CCCCCC3)=C2C)cc1 (stereo not drawn)
  -20%	7%
[22] O=C(Nc1nnc([C@H]2C[C@H](O)[C@@H](CO)O2)s1)c1cccc(Cl)c1
  0%	13%
[23] COc1ccccc1OCC(=O)N/N=C(\C)c1ccc2ccccc2c1
  21%	9%
[24] c1ccc2c(c1)nnn2-c1ccncc1
  -2%	3%
[25] O=C(CNC(=O)c1ccccc1)OC(C(=O)O)c1ccc(F)cc1 (stereo not drawn)
  -21%	1%
[26] CC(C)C[C@H]1CNC(=O)C(=O)N1C[C@@H]1CCCN1C[C@H](Cc1ccccc1)N1C[C@H](CC(C)C)N(CCc2ccccc2)C(=O)C1=O
  30%	-6%
[27] CCOC(=O)N1CCN(C(=O)C[C@@H]2C[C@@]3(C(=O)OCC)CCC=C3N(Cc3ccc4c(c3)OCO4)C2=O)CC1
  -13%	-3%
[28] CCCS(=O)(=O)NC(=O)C1(C)CCCN(C(=O)c2ccc(C(=O)OC)cc2)C1 (stereo not drawn)
  -14%	-18%[18.4 µM]
[29] CCCCCCCCN1C(=O)[C@H](CC(=O)NCc2cccc(C(F)(F)F)c2)C[C@@]2(C(=O)OC)CCCCC=C12
  -19%	-4%
[30] CNC(=O)C[C@H]1C(=O)N(CCc2ccccc2)C[C@@H]1CSC
  -3%	6%

# Rewritten as labelled records: part of the list above
3	CCOC(=O)c1c(NC(=O)CN2C(=O)N(C)C3(CCCCC3)C2=O)sc(C(=O)N(C)C)c1C
  StopGo reporter = -14% | RE007 growth inh = 4%

4	CC(NC(=O)CN1c2cccc3cccc(c23)S1(=O)=O)c1ccccc1 (stereo not drawn)
  StopGo reporter = -21% | RE007 growth inh = 8%

5	COc1ccc(NC(=O)C[C@H]2C(=O)N(Cc3ccccc3)C[C@@H]2c2ccc(OC)cc2)cc1
  StopGo reporter = -18% | RE007 growth inh = 6%

6	COC(=O)[C@]12CCCCC=C1N(Cc1ccco1)C(=O)[C@H](CC(=O)N1CCN(C(=O)c3ccco3)CC1)C2
  StopGo reporter = -25% | RE007 growth inh = 3%

# Remaining list, next part:
# Screens in order: StopGo reporter	RE007 growth inh
[31] COc1cc2c(cc1OC)CN(C(=O)CSC1=NCCS1)CC2
  ?	3%
[32] Cc1nc2c(N)nn(C)c2nc1C
  -20%	-8%
[33] COC(=O)C[C@@H]1CC[C@H](NS(=O)(=O)c2cccc(F)c2)[C@@H](CO)O1
  -13%	12%
[34] C[C@@]12CC[C@@H](c3cc4c(cc3C1)OCO4)N2c1ccccc1
  -23%	-1%
[35] O=C(Cc1cccc(NC(=O)C2CCCN(C(=O)C3CCCC3)C2)c1)Nc1cccc(C(=O)N2CCCCC2)c1 (stereo not drawn)
  -2%	-1%
[36] COc1ccc(C(=O)NC2=NCCS2)cc1S(=O)(=O)N1CCOCC1
  1%	2%
[37] Cc1cn([C@H]2C[C@H](O)[C@@H](CCC(=O)NCc3cccc4ccccc34)O2)c(=O)[nH]c1=O
  -15%	2%
[38] CCOC(=O)C1(C)CCCCN1C(=O)c1ccoc1 (stereo not drawn)
  -21%	3%[18.4 µM]
[39] OC(c1ccc(-c2ccccc2)cc1)c1ncc(-c2ccc(F)cc2)[nH]1 (stereo not drawn)
  -11%	-21%
[40] CC(=O)OC[C@H]1O[C@@H](Oc2cc3ccc(=O)oc3cc2OC(C)=O)[C@H](OC(C)=O)[C@@H](OC(C)=O)[C@@H]1OC(C)=O
  16%	7%
[41] Cc1ccc(S(=O)(=O)N(C)C[C@@H]2Oc3ncc(Br)cc3C(=O)N([C@H](C)CO)C[C@H]2C)cc1
  0%	-14%
[42] COc1ccc(-c2noc3c2-c2nc(-c4ccccc4)sc2CC3)cc1
  -13%	8%
[43] O=C(COC(=O)c1cccc(-n2cnnn2)c1)c1ccc(F)c(F)c1
  21%	-4%
[44] CCc1nc2c(OCc3cccc(Cl)c3)cccn2c1N(C)C(=O)C(C)C
  -17%	?
[45] CC(C)Oc1ccc2ccccc2c1CNC[C@H]1O[C@@H](n2ccc(N)nc2=O)[C@H](O)[C@@H]1O
  -13%	-17%
[46] O=C(C=Cc1ccc2c(c1)OCO2)C=Cc1ccc2c(c1)OCO2
  -10%	-20%
[47] Cc1ccc(S(=O)(=O)NC(=O)C2(C)CCN2C(=O)Cc2ccc(Cl)cc2Cl)nc1 (stereo not drawn)
  -14%	23%
[48] Cc1ccccc1-c1cnc(C(O)c2ccc(C(C)(C)C)cc2)[nH]1 (stereo not drawn)
  4%	6%[18.4 µM]
[49] O=C(Nc1ccccc1)c1cc(C2CCCN(C(=O)c3ccc4c(c3)CCO4)C2)on1 (stereo not drawn)
  13%	-10%
[50] Oc1ccc(C[C@@H](CN2CCCC2CN2C(=S)NC[C@@H]2Cc2ccccc2)N2C[C@H](Cc3ccccc3)N(CC3CCCCCC3)C2=S)cc1 (stereo partly drawn)
  -17%	-17%
[51] CCOC(=O)C1=C[C@@H](C2CCCCC2)N(S(=O)(=O)c2ccc([N+](=O)[O-])cc2)[C@H]1c1ccccc1
  ?	-7%
[52] COCCNC(=O)C1(C)CCN(C(=O)c2oc3ccccc3c2C)C1 (stereo not drawn)
  4%	-6%[18.4 µM]
[53] CC1(Oc2ccccc2)CCN(Cc2csc3ccccc23)C1 (stereo not drawn)
  -15%	?
[54] CCNC(=O)C1(C)CCN(C(=O)c2ccc(C#N)cc2)C1 (stereo not drawn)
  ?	-7%
[55] CC1(C(=O)NS(=O)(=O)c2ccccc2)CCN1C(=O)CC1CCCC1 (stereo not drawn)
  -9%	18%[18.4 µM]
[56] COc1ccc(C(=O)NCCNc2nc3cc(C)cc(C)c3cc2C#N)nc1
  ?	-2%
[57] COc1ccc(S(=O)(=O)N2CCC(C(=O)NCCC(=O)Nc3ccccc3OC)CC2)cc1
  -22%	-6%
[58] CN(CCO)c1cccc2c1S(=O)(=O)N[C@@H](Cc1ccccc1)CO2
  -5%	-9%
[59] C[C@@H]1COc2cc(N3CCC[C@H]3CO)ccc2S(=O)(=O)N1
  -19%	5%
[60] Cc1ccc(C(=O)CCC(=O)N2CCN(C/C=C/c3ccccc3)CC2)cc1
  0%	-1%
[61] COc1ccccc1N1CCN(S(=O)(=O)c2ccc([N+](=O)[O-])cc2)CC1
  ?	-1%
[62] O=C(CCNC(=O)N1CC(=O)Nc2ccccc21)NCc1cccc(C(F)(F)F)c1
  -14%	-4%
[63] CN(C(=O)c1cccc(NC(=O)Cc2cccc(NC(=O)C3CCCN(C(=O)C4CCCCC4)C3)c2)c1)C1CC1 (stereo not drawn)
  -24%	-5%
[64] CC(C)(C)OC(=O)N(CCc1ccccc1)Cc1ccccc1OCc1cccc(NC(=O)C2CCC2)c1
  -9%	7%
[65] Cc1ccc([C@@H]2C[C@H]3[C@@H](CN2S(=O)(=O)c2ccc(Cl)cc2)C(=O)C[C@@H](c2ccc(Cl)cc2)N3S(=O)(=O)c2ccccc2C)cc1
  -24%	15%
[66] O=C(c1cccs1)N1C[C@@H](O)[C@H](n2cc(C3CC3)nn2)C[C@@H]1c1ccc(Cl)cc1
  -25%	-2%
[67] COc1cccc(CNc2nc(NCc3ccccc3)nc3ccsc23)c1
  ?	?
[68] CCOC(=O)[C@]12CCC=C1N(Cc1ccco1)C(=O)[C@H](CC(=O)NCc1cccs1)C2
  4%	-8%
[69] CC1Cc2ccccc2N1C(=O)CSc1ccccn1 (stereo not drawn)
  43%[activator]	-9%
[70] CCCCn1nnnc1C(c1cccc(OC)c1OC)N1CCC2(CC1)C(=O)NCN2c1ccccc1 (stereo not drawn)
  0%	0%
[71] CCC(C(=O)NC(C)(C)C)N(Cc1ccc(OC)cc1)C(=O)c1snc(C(N)=O)c1N (stereo not drawn)
  -11%	-19%
[72] Cc1ccc(S(=O)(=O)N2CCOCC2)cc1NC(=O)COC(=O)c1ccco1
  -3%	-9%
[73] O=C(NCc1ccccn1)[C@@H]1CCCN1C(=O)[C@@H]1CCCN1C(=O)c1cccs1
  -2%	2%
[74] OC[C@@H]1CN(CCN2CCOCC2)C[C@H](n2cnc3c(NCc4ccco4)ncnc32)O1
  1%	2%
[75] CS(=O)(=O)c1ccc(-c2cccc(NC(=O)c3ccc4c(c3)OCO4)c2)nn1
  -9%	-11%
[76] COc1cc(C(=O)NC(CCSC)C(=O)Nc2ccc(N3CCOCC3)cc2)cc(OC)c1OC (stereo not drawn)
  1%	5%
[77] O=C1C(=Cc2ccncc2)CCCc2ccccc21
  ?	-25%
[78] CC(=O)NC(C)(c1ccccc1)c1nc(-c2cncnc2)cs1 (stereo not drawn)
  0%	4%
[79] CCCC(=O)N1CCC1(C)C(=O)NS(=O)(=O)c1cc2c(cc1C)CCCS2(=O)=O (stereo not drawn)
  1%	15%
[80] CCOC(=O)[C@@H]1[C@H]2COc3ccccc3[C@@H]2N2C(=O)N(c3ccc(OC)cc3)C(=O)[C@]12C
  -4%	-8%
[81] COc1cccc(C(C)(O)c2nc(-c3ccc(F)c(Cl)c3)cs2)c1 (stereo not drawn)
  ?	?
[82] CCc1nc2c(OCc3ccc(C(=O)N(C)C)cc3)cccn2c1N(C)C(=O)Nc1ccccc1OC
  -10%	-20%
[83] CCOC(=O)[C@]12CCC=C1N(Cc1ccccc1)C(=O)[C@H](CC(=O)NCc1ccc(OC)c(OC)c1)C2
  -27%	-10%
[84] COCCNC(=O)C1(C)CCN(C(=O)c2cccc(C)c2C)C1 (stereo not drawn)
  -19%	-6%
[85] C[C@H]1C(=O)O[C@@H]2CCN3CC=C(COC(=O)[C@](C)(O)[C@]1(C)O)[C@H]23
  -19%	-6%
[86] CC(O)(c1ccc(F)c(F)c1)c1nc(-c2ccc(F)c(Cl)c2)cs1 (stereo not drawn)
  -16%	?
[87] C#CCNC(=O)C[C@@H]1C[C@@]2(C(=O)OC)CCCCC=C2N(CCCCCCCC)C1=O
  -23%	-20%
[88] CCC1(CC)C(=O)C2=C3C1[C@H](C(=O)OC)CC(C(=O)OC)C[C@H]3n1c(=O)n(C)c(=O)n1[C@H]2C (stereo partly drawn)
  -6%	3%
[89] CCOc1ccc(CNC(=O)C2CCCN(S(=O)(=O)N3CCC(C)CC3)C2)cc1OC (stereo not drawn)
  -22%	2%
[90] CC(C)CCNC(=O)c1cc(S(=O)(=O)N2CCC3(CC2)OCCO3)ccc1F
  -24%	13%
[91] CN(Cc1ccccc1)C(=O)c1ccc(NC(=O)Cc2ccc(NC(=O)C3CCCN(C(=O)c4ccccc4)C3)cc2)cc1 (stereo not drawn)
  0%	-14%
[92] CC(=O)Nc1ccc(-c2ccnc3c2CC(C)(C(=O)Nc2cccc(Oc4ccccc4)c2)O3)cc1 (stereo not drawn)
  0%	-19%
[93] CCCNC(=O)N[C@H]1C=C[C@H](CC(=O)NC2CCCCC2)O[C@@H]1CO
  -6%	12%
